Vaccinia inh: blocks a specific stage of Vaccinia orthopoxvirus infection, primary screen, cell-based, single point; activity change (mCherry), % (concentration not given with the values); Vaccinia-infected cells, mCherry/Venus stage reporter fluorescence; hits give low values; some inactives read as strong as hits; 89,000 tested, 0.01% active;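 active = mCherry past -33% and 40 or more points under the early reporter, replicates agreeing; inconclusive = past -33% without that gap or agreement; tested in A549 cells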;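 also: scaled between vehicle wells and reference inhibitor wells; 23 nL library stock went into each well; one replicate is shown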
Vaccinia inh Venus: further read-out of Vaccinia inh, marked with its call; activity change (Venus), %; measured here: Venus reporter, other viral stage;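 negative = less Venus signal; first of two replicates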
* marks the source's active call; other numbers are inactive results; u = inconclusive; x = not tested or not shown.

SMILES	Vaccinia inh	Vaccinia inh Venus
C[C@H](CO)N1C[C@H](C)[C@@H](CN(C)C(=O)c2ccncc2)Oc2cc(C#C[C@@H](C)O)ccc2S1(=O)=O	3.0	-2.5
CCCC#Cc1ccc([C@H]2[C@@H](CO)N3C(=O)CN(S(=O)(=O)Cc4ccccc4)C[C@H]23)cc1	u	x
O=C(C1CC1)N1CC(=O)N2[C@H](CO)[C@@H](c3ccc(C#CCc4ccccc4)cc3)[C@@H]2C1	-9.1	-5.9
O=C(CC1CC1)N1CC(=O)N2[C@H](C1)[C@@H](c1ccc(-c3ccccc3)cc1)[C@@H]2CO	-11.0	-9.7
CCN1[C@H](C(=O)NCCOC)[C@@H](CO)[C@@H]2Cn3c(ccc(-c4ccc(C(=O)N(C)C)cc4)c3=O)[C@@H]21	5.6	-0.5
CN(C)c1ccc2c(c1)[C@H]1C[C@H](CC(=O)NCc3ccc(Cl)cc3)O[C@H](CO)[C@H]1O2	-1.7	0.3
O=C(O)[C@@H]1[C@@H](CO)[C@@H]2Cn3c(ccc(/C=C/c4ccccc4)c3=O)[C@@H]2N1C(=O)C1CCCC1	3.3	2.9
CN1C(=O)c2cc(NC(=O)c3ccc(C(F)(F)F)cc3)ccc2OC[C@H]2O[C@H](CC(=O)NC3Cc4ccccc4C3)CC[C@@H]21	u	x
O=C(Nc1ccc2c(c1)OCO2)N[C@H]1C=C[C@@H](CC(=O)N2CCN(c3ccccc3)CC2)O[C@@H]1CO	-14.0	-0.9
O=C(C[C@@H]1CC[C@H]2[C@@H](COC[C@@H](O)CN2S(=O)(=O)c2cccc(Cl)c2)O1)N1CCOCC1	2.8	2.9
CO[C@H]1CN(C)C(=O)c2cc(NC(=O)Nc3cccc(Cl)c3)ccc2OC[C@H](C)N(C)C[C@@H]1C	u	x
CC(C)NC(=O)Nc1ccc2c(c1)C(=O)N([C@H](C)CO)C[C@H](C)[C@@H](CN(C)CC1CC1)OCCCC[C@H](C)O2	6.6	8.2
C[C@@H]1CN([C@H](C)CO)S(=O)(=O)c2ccc(C#CC3CC3)cc2O[C@H]1CN(C)C(=O)C1CC1	7.0	-5.8
CCC(=O)N(C)C[C@@H]1Oc2cc(C#CC(C)(C)O)ccc2S(=O)(=O)N([C@H](C)CO)C[C@H]1C	9.0	9.5
C[C@@H]1CN([C@@H](C)CO)C(=O)c2cc(C3=CCCC3)cnc2O[C@H]1CN(C)S(=O)(=O)c1cn(C)cn1	0.8	6.1
O=C1CN(S(=O)(=O)c2ccccc2)C[C@@H]2[C@@H](c3ccc(Br)cc3)[C@@H](CO)N12	-11.9	-26.9
COc1ccc(C#Cc2cnc3c(c2)C(=O)N([C@@H](C)CO)C[C@H](C)[C@H](CN(C)C(=O)c2ccccc2F)O3)cc1	12.1	-1.6
C[C@H](CO)N1C[C@H](C)[C@H](CN(C)S(=O)(=O)c2cccc(C#N)c2)OCc2ccccc2-c2c(n(C)c3ccccc23)C1=O	-33.4	-29.2
Cc1cc(C(=O)Nc2cccc3c2O[C@H](CN(C)Cc2ccc(Cl)c(Cl)c2)[C@H](C)CN([C@@H](C)CO)C3=O)n(C)n1	0.4	6.7
C=CCOC(=O)[C@H]1[C@@H]2C(=O)O[C@@H](c3ccccc3)[C@@H](c3ccccc3)N2[C@@H](c2ccc(OCCOC(=O)[C@H]3C[C@H]4C(=O)N5CCC[C@H]5C(=O)N4[C@H]3c3cccc(OCCO)c3)cc2)[C@]12C(=O)Nc1ccccc12	11.9	14.8
O=C(NCC[C@H]1CC[C@H](NS(=O)(=O)c2ccc(Cl)cc2)[C@@H](CO)O1)c1ccc2c(c1)OCO2	-16.0	-2.9
COc1cc2c(cc1OC)CN(C(=O)[C@H]1[C@@H]3C(=O)O[C@@H](c4ccccc4)[C@@H](c4ccccc4)N3[C@@H](c3ccccc3OCCO)[C@]13C(=O)Nc1ccc(C#CC4(O)CCCCCC4)cc13)CC2	u	x
COc1ccc(-c2ccc([C@@H]3[C@@H](CO)N(C(=O)NC(C)C)[C@H]3C#N)cc2)cc1	9.0	2.8
O=C(C[C@H]1C[C@H]2c3cc(NC(=O)CC4CC4)ccc3O[C@H]2[C@H](CO)O1)NCCN1CCCCC1	7.4	14.0
C[C@H](CO)N1C[C@H](C)[C@@H](CN(C)C(=O)NC2CCCCC2)Oc2ccc(NC(=O)Nc3ccc4c(c3)OCO4)cc2C1=O	-4.8	11.9

(cont.)
SMILES	Vaccinia inh	Vaccinia inh Venus
CCC(=O)N(C)C[C@@H]1Oc2cc(-c3ccccc3OC)ccc2S(=O)(=O)N([C@@H](C)CO)C[C@@H]1C	10.5	13.7
N#C[C@H]1[C@@H](c2ccc(-c3cccnc3)cc2)[C@@H](CO)N1C(=O)C1CCOCC1	10.0	-5.4
COCC#Cc1cnc2c(c1)C(=O)N([C@@H](C)CO)C[C@H](C)[C@@H](CN(C)S(C)(=O)=O)O2	7.0	-0.7
Cn1cnc(CCNC(=O)C[C@H]2CC[C@@H]3[C@H](COC[C@@H](O)CN3C(=O)Nc3ccc(C(F)(F)F)cc3)O2)c1	-19.9	-9.4
Cc1ccc(S(=O)(=O)N(C)C[C@H]2OCCCC[C@H](C)Oc3ccc(NC(=O)Cc4ccccc4)cc3C(=O)N([C@@H](C)CO)C[C@H]2C)cc1	-3.2	-3.0
C[C@@H]1CN([C@H](C)CO)S(=O)(=O)c2ccc(C#CCC3CCCC3)cc2O[C@@H]1CN(C)C	u	x
Cc1noc(C)c1NC(=O)Nc1cccc2c1O[C@@H](CN(C)C(=O)Nc1ccccc1)[C@@H](C)CN([C@@H](C)CO)C2=O	7.6	9.5
CN1c2ccc(C#Cc3cccnc3)cc2[C@H]2[C@H](CCN2S(=O)(=O)c2cccc(F)c2)[C@@H]1CO	12.4	9.9
CO[C@@H]1CN(C)C(=O)c2cc(NC(=O)C3CC3)ccc2OC[C@@H](C)N(C(=O)Cc2ccccn2)C[C@H]1C	1.8	1.2
COC(=O)C[C@@H]1C[C@@H]2c3cc(NC(=O)CC4CC4)ccc3O[C@@H]2[C@H](CO)O1	5.7	4.6
O=C(C1CCOCC1)N1CC(=O)N2[C@H](CO)[C@H](c3ccc(C#CC4CC4)cc3)[C@@H]2C1	-0.6	4.4
C[C@H](CO)N1C[C@H](C)[C@H](CN(C)CC2CCCCC2)OCCCC[C@H](C)Oc2ccc(NS(=O)(=O)c3ccccc3)cc2C1=O	-2.4	-3.2
O=C(C[C@H]1CC[C@@H]2[C@H](COC[C@H](O)CN2C(=O)c2ccc(F)cc2)O1)Nc1nccs1	13.1	12.2
C[C@H]1CCCCO[C@H](CN(C)Cc2ccccc2)[C@@H](C)CN([C@@H](C)CO)C(=O)c2cc(NC(=O)Nc3ccc(F)cc3)ccc2O1	u	x
COCC(=O)N(C)C[C@@H]1Oc2ncc(-c3ccccc3C)cc2C(=O)N([C@H](C)CO)C[C@H]1C	14.4	10.3
C[C@@H]1CN([C@@H](C)CO)S(=O)(=O)c2ccc(C#Cc3ccccc3F)cc2O[C@@H]1CN(C)C(=O)c1ccc2c(c1)OCO2	u	x
COc1ccccc1S(=O)(=O)N(C)C[C@H]1OCc2cn(nn2)CCCC(=O)N([C@@H](C)CO)C[C@@H]1C	13.9	7.1
C[C@H](CO)N1C[C@H](C)[C@@H](CN(C)C(=O)NC2CCCCC2)Oc2ccc(NC(=O)Nc3ccc(F)cc3)cc2C1=O	12.0	13.8
COCC(=O)N1C[C@H](C)[C@@H](OC)CN(C)C(=O)c2cc(NC(=O)NC(C)C)ccc2OC[C@@H]1C	13.1	16.5
CCC(=O)Nc1ccc2c(c1)OC[C@H](C)N(C(=O)CC1CC1)C[C@@H](C)[C@@H](OC)CN(C)C2=O	-7.7	-8.8
COCC#Cc1ccc([C@H]2[C@H](CO)N3CCCCN(Cc4ccncc4)C[C@@H]23)cc1	3.2	0.9
C[C@H]1CN([C@@H](C)CO)C(=O)Cc2cc(NS(=O)(=O)c3cccs3)ccc2O[C@H]1CN(C)C	4.0	3.0
COCC(=O)N1CC2(C1)[C@H](c1ccccc1)[C@H](CO)N2C(=O)NC1CCCC1	-2.6	10.3
Cc1ccc(S(=O)(=O)N(C)C[C@H]2OCCCC[C@H](C)Oc3ccc(NC(=O)CCCN(C)C)cc3C(=O)N([C@H](C)CO)C[C@@H]2C)cc1	18.1	7.3
COc1ccc(S(=O)(=O)Nc2ccc3c(c2)C(=O)N([C@H](C)CO)C[C@H](C)[C@@H](CN(C)Cc2ccncc2)OCCCC[C@@H](C)O3)cc1	29.7	12.2

Brought forward from above: 7 entries; new compounds follow.
SMILES	Vaccinia inh	Vaccinia inh Venus
COCC(=O)N1C[C@H](C)[C@@H](OC)CN(C)C(=O)c2cc(NC(=O)NC(C)C)ccc2OC[C@@H]1C	13.1	16.5
CCC(=O)Nc1ccc2c(c1)OC[C@H](C)N(C(=O)CC1CC1)C[C@@H](C)[C@@H](OC)CN(C)C2=O	-7.7	-8.8
COCC#Cc1ccc([C@H]2[C@H](CO)N3CCCCN(Cc4ccncc4)C[C@@H]23)cc1	3.2	0.9
C[C@H]1CN([C@@H](C)CO)C(=O)Cc2cc(NS(=O)(=O)c3cccs3)ccc2O[C@H]1CN(C)C	4.0	3.0
COCC(=O)N1CC2(C1)[C@H](c1ccccc1)[C@H](CO)N2C(=O)NC1CCCC1	-2.6	10.3
Cc1ccc(S(=O)(=O)N(C)C[C@H]2OCCCC[C@H](C)Oc3ccc(NC(=O)CCCN(C)C)cc3C(=O)N([C@H](C)CO)C[C@@H]2C)cc1	18.1	7.3
COc1ccc(S(=O)(=O)Nc2ccc3c(c2)C(=O)N([C@H](C)CO)C[C@H](C)[C@@H](CN(C)Cc2ccncc2)OCCCC[C@@H](C)O3)cc1	29.7	12.2
CC(=O)N(C)C[C@@H]1[C@@H](c2ccc(-c3ccccc3)cc2)[C@H](CO)N1C(=O)C1CC1	8.7	16.2
Cc1cccc(-c2ccc([C@@H]3[C@@H](CO)N4CCCCN(Cc5cncnc5)C[C@H]34)cc2)c1	13.2	-15.5
CCCN(C)C[C@H]1OCCCC[C@@H](C)Oc2ccc(NC(=O)CCC(F)(F)F)cc2C(=O)N([C@@H](C)CO)C[C@H]1C	-12.1	-11.8
C[C@H](CO)N1C[C@H](C)[C@@H](CN(C)Cc2ccccc2)Oc2ncc(C#CCc3ccccc3)cc2C1=O	-27.0	-18.8
O=C(C[C@H]1C=C[C@H](NC(=O)C2CCOCC2)[C@H](CO)O1)Nc1ccccc1	7.0	0.5
CS(=O)(=O)N1CC2(C1)[C@H](c1ccccc1)[C@@H](CO)N2Cc1ccccc1	2.4	5.5
COCC(=O)N1CCCCN2[C@H](CO)[C@@H](c3ccc(C#Cc4ccc(OC)cc4)cc3)[C@H]2C1	u	x
O=C(NC1CCC1)[C@@H]1[C@@H](CO)[C@@H]2Cn3c(ccc(-c4ccccc4)c3=O)[C@@H]2N1CCc1ccccc1	-19.6	-13.7
CO[C@@H]1CN(C)C(=O)c2ccc(N)cc2OC[C@@H](C)NC[C@H]1C	8.6	13.8
COc1ccc(S(=O)(=O)Nc2ccc3c(c2)C(=O)N([C@H](C)CO)C[C@@H](C)[C@@H](CN(C)Cc2ccc4c(c2)OCO4)OCCCC[C@H](C)O3)cc1	u	x
Cn1cnc(S(=O)(=O)N[C@@H]2CC[C@H](CC(=O)NCC3CCCCC3)O[C@@H]2CO)c1	2.8	1.2
Cc1ccc(S(=O)(=O)N(C)C[C@H]2OCCCC[C@@H](C)Oc3ccc(NC(=O)NC(C)C)cc3C(=O)N([C@H](C)CO)C[C@H]2C)cc1	-11.3	-13.9
C[C@H](CO)N1C[C@H](C)[C@@H](CN(C)C(=O)CC2CC2)Oc2cc(C3=CCCC3)ccc2S1(=O)=O	-7.5	-1.9
C[C@H](CO)N1C[C@H](C)[C@@H](CN(C)C(=O)CN2CCOCC2)Oc2ncc(C3=CCCCC3)cc2C1=O	35.0	13.4
CS(=O)(=O)Nc1ccc2c(c1)[C@@H]1C[C@@H](CC(=O)NCc3cccc(F)c3)O[C@H](CO)[C@@H]1O2	4.6	4.8
C[C@H]1CCCCO[C@@H](CN(C)Cc2ccc3c(c2)OCO3)[C@@H](C)CN([C@@H](C)CO)C(=O)c2cc(NC(=O)CCC(F)(F)F)ccc2O1	u	x
COc1cccc(-c2ccc3c(c2)[C@H]2[C@H](CCN2C(=O)C2CCOCC2)[C@@H](CO)N3)c1	-2.6	-4.8
CN1[C@H](C(=O)NC2Cc3ccccc3C2)[C@@H](CO)[C@@H]2Cn3c(ccc(-c4cncnc4)c3=O)[C@@H]21	-3.1	6.6
CCC(=O)N1CCCCN2[C@H](CO)[C@@H](c3ccc(-c4cccc(C(=O)N(C)C)c4)cc3)[C@H]2C1	47.3	19.3
COc1ccccc1NC(=O)N1C[C@H]2[C@@H](c3ccccc31)[C@@H](CO)N2C(=O)c1ccccc1	8.8	-0.6
CC(C)CC#Cc1ccc([C@H]2[C@H](CO)N3CCCCN(S(=O)(=O)c4ccc(F)cc4)C[C@@H]23)cc1	-23.8	-31.6
CC=Cc1ccc2n(c1=O)C[C@@H]1[C@@H](CO)[C@H](C(=O)NCCc3ccccc3)N(C(C)=O)[C@H]21 (mixture of isomers)	15.4	8.6
COc1ccc(-c2cnc3c(c2)C(=O)N([C@H](C)CO)C[C@@H](C)[C@H](CN(C)S(C)(=O)=O)O3)cc1	18.6	13.4
C/C=C/c1ccc([C@@H]2[C@@H](CO)N3C(=O)CN(C(=O)Cc4cccnc4)C[C@@H]23)cc1	1.0	-5.3
CS(=O)(=O)Nc1ccc2c(c1)[C@H]1C[C@H](CC(=O)NCC(F)(F)F)O[C@@H](CO)[C@H]1O2	-3.4	0.3
O=C(N[C@H]1CC[C@H](CCn2cc(-c3ccccc3F)nn2)O[C@@H]1CO)c1ccc2c(c1)OCO2	-14.5	-9.0
CO[C@@H]1CN(C)C(=O)c2cc(NC(=O)Cc3ccccc3)ccc2OC[C@H](C)N(C(C)=O)C[C@H]1C	1.3	4.1
COCC#Cc1cnc2c(c1)C(=O)N([C@H](C)CO)C[C@H](C)[C@H](CN(C)C(=O)Nc1cccc(F)c1)O2	20.2	16.1

Only part of the results is shown; count on the stated rates, not on these rows.
